# Compound activity as filed in PubChem.
# HPGD inh = inhibitors of human 15-hydroxyprostaglandin dehydrogenase (HPGD) | P15428 | purified HPGD, NADH fluorescence kinetic, PGE2 substrate | Potency, µM, inactives show at the top dose activity change, negative = inhibition, actives largely listed as inhibitors | 150,000 compounds, 4.3% hits; active = well fitted inhibition curve with a large enough effect (not every such curve was filed as active); inconclusive = small, poorly fitted or top-dose-only effect, or another doubt; inactive = no such curve, though single readings can be large or run the other way;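 note: top concentration of the series not given in the record; plate controls included wells without enzyme; inactives centre near -10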
# Target sequence (P15428 whole entry, looked up): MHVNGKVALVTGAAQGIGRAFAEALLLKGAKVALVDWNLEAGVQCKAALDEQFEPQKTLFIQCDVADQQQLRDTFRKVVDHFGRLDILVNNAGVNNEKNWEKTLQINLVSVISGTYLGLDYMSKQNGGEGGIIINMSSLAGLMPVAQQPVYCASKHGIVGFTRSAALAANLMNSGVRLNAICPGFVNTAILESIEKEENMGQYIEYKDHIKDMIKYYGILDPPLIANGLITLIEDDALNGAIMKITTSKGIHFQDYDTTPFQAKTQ
#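 NADH formation kinetics: reaction with 30 uM PGE2 and 1 mM NAD+ (final), 20 nM enzyme, Tris-HCl pH 8 with Tween 20, after 15 min compound preincubation at room temperature. Fluorescence change, last versus first of five reads.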
# Active calls of the source: *; ? = inconclusive. % is set by controls: 0 for no effect and ±100 for the full control effect; potency is the fitted concentration of half-maximal effect. An excerpt; the hit share may differ from the screen's.
SMILES,HPGD inh
CCOc1ccc(NC(=O)C2CCCN(S(=O)(=O)c3cccc4nsnc34)C2)cc1 (stereo unspecified),-8%
O=C(COC(=O)c1cccc2ccccc12)Nc1ncc(C(F)(F)F)cc1Cl,?
O=C1C[C@@H]2CCN3C(=O)CCC[C@@H]([C@H]23)[C@@H]1Cc1ccccc1,-1%
COc1cccc(NC(=O)c2ccc(NC(=O)C(C)(C)C)cc2)c1,-6%
C=CCNC(=S)NNC(=O)c1cccn(Cc2ccc(Cl)cc2)c1=O,-13%
COc1ccc(NS(=O)(=O)c2ccc(NC(=S)NC(=O)c3ccc(F)cc3)cc2)nn1,-10%
CC(C)OC(=O)/C(=C\c1cccc2ccccc12)NC(=O)c1ccccc1,-8%
CCOC(=O)CSc1nc2c(c(=O)n1-c1ccc(OC)cc1)SCC2,0%
Cc1ccc(NC(=O)C2CC(=O)n3c(nc4ccccc43)N2)cc1 (stereo unspecified),-10%
CC(C)NC(=S)Nc1ccc2nc3n(c(=O)c2c1)CCCCC3,16%
CCOc1ccccc1NS(=O)(=O)c1cccs1,-4%
Cc1ccc(-c2noc(COc3ccccc3C)n2)cc1,-6%
COc1ccc(C(=O)NC(=S)NNC(=O)c2cnccn2)cc1OC,-19%
COc1ccc(-c2ccc(=O)n(Cc3cc(=O)n4ccccc4n3)n2)cc1,-17%
Cc1c(/C=N/n2cnnc2)c2ccccc2n1CCOc1ccccc1,-16%
O=C(O)Cc1csc2ccccc12,-6%
Cc1cc(/C=C2/NC(=O)N(c3ccccc3)C2=O)c(C)n1-c1cccnc1,-18%
Cc1cc(C)n(C(=O)c2cc3sccc3[nH]2)n1,-20%
CC(=O)Nc1ccc(S(=O)(=O)N2CCCc3ccccc32)cc1,-13%
COCC(C)NS(=O)(=O)c1ccc(C)cc1 (stereo unspecified),3%
CCN(CC)CCOC(=O)c1c(C)oc2ccc(OC)cc12,-7%
O=C(N/N=C/C=C/c1ccccc1)c1cc2c(ccc3ccccc32)o1,?
COc1ccccc1NC(=S)N1CCC(c2nc3ccccc3o2)CC1,-9%
CC(=O)c1ccc2c3c(cccc13)CC2,?

# Next section, starting with the last 3 of the part before.
SMILES,HPGD inh
O=C(N/N=C/C=C/c1ccccc1)c1cc2c(ccc3ccccc32)o1,?
COc1ccccc1NC(=S)N1CCC(c2nc3ccccc3o2)CC1,-9%
CC(=O)c1ccc2c3c(cccc13)CC2,?
Cc1ccnc(N2CCC(C(=O)NNC(=O)COc3cccc4ccccc34)CC2)n1,-24%
CCCn1c(SCc2ccon2)nc2ccccc2c1=O,-2%
O=C(Cc1ccccc1)Nc1nonc1NC(=O)c1ccccc1,-14%
Cc1ccc(C2C(C(=O)c3sc(C)nc3C)=C(O)C(=O)N2CCN(C)C)o1 (stereo unspecified),-23%
COC(=O)c1cc(Cl)c(NC(=O)/C=C/c2ccc(Cl)cc2Cl)cc1OC,?
COCCn1c(SCC(=O)Nc2ccc(C)cc2)nc2c(oc3ccccc32)c1=O,-17%
CCOC(=O)c1nnn(-c2nn3nnnc3c3ccccc23)c1C,-20%
COC(=O)c1c(-c2ccccc2)csc1NC(=O)c1ccco1,?
c1coc(CNc2ncnc3c2oc2ccccc23)c1,-19%
CN(CCNC(=O)C1(O)c2ccccc2NC(=O)N1c1ccccc1)Cc1ccccc1 (stereo unspecified),2%
Cc1cc(C(=O)NNC(=S)NC(C)c2ccccc2)cs1 (stereo unspecified),-19%
CN(C)S(=O)(=O)c1cccc(NC(=O)CCNC(=O)c2ccccc2Cl)c1,?

# As entered above:
# `COCCn1c(SCC(=O)Nc2ccc(C)cc2)nc2c(oc3ccccc32)c1=O` – HPGD inh = -17%
# `Cc1ccc(C2C(C(=O)c3sc(C)nc3C)=C(O)C(=O)N2CCN(C)C)o1` (stereo unspecified) – HPGD inh = -23%
# `CCCn1c(SCc2ccon2)nc2ccccc2c1=O` – HPGD inh = -2%
# `c1coc(CNc2ncnc3c2oc2ccccc23)c1` – HPGD inh = -19%
# `CN(CCNC(=O)C1(O)c2ccccc2NC(=O)N1c1ccccc1)Cc1ccccc1` (stereo unspecified) – HPGD inh = 2%

# Next section
SMILES,HPGD inh
Cc1cc(C)cc(C(=O)N2CC(C)OC(C)C2)c1 (stereo unspecified),-11%
CCC(C)Nc1nc(SC(C(C)=O)C(C)=O)nc(N(C)C)n1 (stereo unspecified),-9%
CCOC(=O)C1=C(C)NC(=O)NC1c1ccc2c(c1)OCCO2 (stereo unspecified),-3%
O=C(O)c1ccc(CN2C(=O)CSC2=S)cc1,-21%
Cc1ccc(N2C(=O)C3NN=C(C(=O)OCc4ccccc4)C3C2=O)c(C)c1 (stereo unspecified),-2%
Cn1cc(S(=O)(=O)CC(=O)Nc2ccc3c(c2)OCCO3)c2ccccc21,-5%
COC(=O)c1ccc(O)c(Sc2cc(C(=O)OC)ccc2O)c1,4µM*
CCOc1ccc(-n2c(SC(C)C)nc3c(c2=O)SCC3)cc1,3%
CC(C)Cn1c(C(C)C)nc([N+](=O)[O-])c1Sc1ccc(Cl)cn1,-22%
CCn1c(=O)n(CC)c2cc(S(=O)(=O)Nc3ccccc3C)c(C)cc21,-5%
COc1ccccc1Oc1ccc2c(c1)C(=O)N(c1ccc(Br)c3cccnc13)C2=O,-17%
O=C(CSc1nc(Nc2ccccc2)nc(N2CCOCC2)n1)Nc1ccc2c(c1)OCCO2,0%

# Reformatted: results already given.
SMILES: CC(C)Cn1c(C(C)C)nc([N+](=O)[O-])c1Sc1ccc(Cl)cn1
  HPGD inh: -22%

SMILES: CCn1c(=O)n(CC)c2cc(S(=O)(=O)Nc3ccccc3C)c(C)cc21
  HPGD inh: -5%

SMILES: COc1ccccc1Oc1ccc2c(c1)C(=O)N(c1ccc(Br)c3cccnc13)C2=O
  HPGD inh: -17%

SMILES: O=C(CSc1nc(Nc2ccccc2)nc(N2CCOCC2)n1)Nc1ccc2c(c1)OCCO2
  HPGD inh: 0%

# The list continues:
SMILES,HPGD inh
CN(C)S(=O)(=O)c1ccc(C(=O)OCC(=O)Nc2ccccc2OC(F)F)cc1,0%
CN(C)c1ccc(CNC(=O)c2ccc(CNc3c(N4CCCCC4)c(=O)c3=O)cc2)cc1,22µM*
O=C(CSc1ccc(-c2nc3ccccc3[nH]2)cn1)N1CCN(C(=O)c2ccco2)CC1,?
C[C@@H](C[C@@H](O)[C@H](O)C(C)(C)O)[C@@H]1CC[C@]2(C)C3=CC[C@H]4C(C)(C)C(=O)CC[C@]4(C)[C@H]3CC[C@@]12C,-9%
COc1cc(C(C)=O)ccc1Oc1ncnc2c1cnn2-c1ccccc1,-26%
CC(C)(C)OC(=O)N1CCCC1C(=O)NCCc1ccccc1 (stereo unspecified),-4%
CC(C)c1ccc(/C=C/C(=O)NC2CCCCC2)cc1,-20%
N/C(=N\c1nc2c(c(=O)[nH]1)CCCC2)Nc1ccc(Oc2ccccc2)cc1,-16%
CC(C)C[C@@H](CC(=O)N[C@@H](CCCN)CC(=O)N[C@@H]1CCNC[C@H]1C(=O)N[C@H](CC(=O)N[C@@H](CCC(=O)O)CC(=O)O)CC(C)C)NC(=O)[C@@H]1CNCC[C@H]1N,-3%
O=C(CN1C(=O)CCSc2ccccc21)Nc1ccc(F)cc1,-8%
c1ccc([C@H](CCN2CCCC2)c2ccccn2)cc1,-10%
CCOC(=O)C1=C(CS(=O)(=O)c2ccccc2)NC(=O)NC1c1ccccc1 (stereo unspecified),-3%
N#Cc1ccc(CN2CCCC3(CCNCC3)C2)cc1,-2%
CC(C)(C)c1ccc(OCC(=O)NCc2ccco2)cc1,-7%
Cc1cc(C(=O)O)c(S(C)(=O)=O)s1,0%
COc1ccc(-n2c(=O)cnc3cnc(Oc4cccc(Cl)c4)nc32)cc1,-7%
O=C(C1=NNCC1c1ccc(Cl)cc1)C1CO1 (stereo unspecified),-6%
CSC1=NC(C)(C)CC2(C)Nc3ccccc3N12 (stereo unspecified),0%
CCCOC(=O)c1ccc(Nc2nc(C)cc(=O)[nH]2)cc1,-7%
c1ccc(Nc2c(-c3ccco3)nc3ccccn23)cc1,?
O=C(CSc1nc2cccnc2n1Cc1ccccc1)N1CCCC1,?
CCn1c(SCC(=O)NCc2ccccc2)nc2ccccc2c1=O,-9%
CCS(=O)(=O)Nc1ccc(-c2nnc(SCC(=O)c3ccc(NC(C)=O)c(OC)c3)o2)cc1,0.79µM*
CCNC(=S)Nc1ccc2cn[nH]c2c1,?
O=C1CSC(c2cccnc2)N1C1CCCCC1 (stereo unspecified),-8%
CCOC(=O)c1sc(NC(=O)Nc2cccc(Cl)c2)cc1C,1%
CCOC(=O)c1ccc(N2CN=C3SCC(=O)N3C2)cc1,-10%
Cc1noc(/C=C/N(C)C)c1S(=O)(=O)N(C)CC(=O)N1CCc2ccccc21,-5%
COc1cccc2c(=O)cn[nH]c12,?
COc1cc2c(cc1OC)C(C(=O)c1ccc(OC)c(OC)c1O)=NCC2,?
Cc1cc(C)cc(NC(=O)C(Sc2ncnc3ccccc23)c2ccccc2)c1 (stereo unspecified),-1%
Nc1nc(Cl)nc2ccc(Br)cc12,-8%
O=C(Nc1ccc(N2CCOCC2)c(Cl)c1)c1cccnc1Cl,-22%
CCOc1ccc(NC(=O)c2cc3n(n2)C(C(F)(F)F)CC(c2ccco2)N3)cc1 (stereo unspecified),-15%
O=C(Nc1ccccc1N1CCOCC1)c1ccccc1[N+](=O)[O-],-13%
COc1ccccc1-c1cc(C(=O)NC(C)C)no1,?
FC(F)(F)c1cccc(NC(=S)NNC(=S)NCc2ccccc2)c1,?
CCC(=O)Nc1ccccc1C(=O)OCC(=O)c1ccc2ccccc2c1,-25%
COc1ccc(-c2cn[nH]c2-c2ccc(OCc3ccc([N+](=O)[O-])cc3)cc2O)cc1,-11%
CCCc1nnc(NC(=O)c2cc(OC)cc(OC)c2)s1,-2%
COc1ccc(C(=O)N2CCN(c3nc4ccccc4o3)CC2)cc1OC,-8%
CCOC(=O)C1=C(C)Nc2ccccc2N=C1NC(=O)c1cccc(S(=O)(=O)NCc2ccccc2)c1,-3%
CC(C)(C)c1ccc(OCc2ccc(C(=O)N/N=C/c3ccc([N+](=O)[O-])cc3)o2)cc1,-7%
COc1ccc(-n2ncc3c(NCc4ccccn4)ncnc32)cc1,?
CCCOc1ccc(C2C(C(=O)OC)=C(C)N=C3SCCC(=O)N32)cc1OCC (stereo unspecified),-5%
N#Cc1cc2c(=O)n3ccccc3nc2n(CCN2CCOCC2)c1=O,?
CCc1c(C)sc(NC(=O)Cn2nc(C(F)(F)F)c3c2CCCC3)c1C#N,?
CCOc1cc(NC(=O)c2ccco2)c(OCC)cc1NC(=O)CCc1ccc(OC)cc1,?
CC(=O)N1CC[n+]2c(-c3ccc(Cl)cc3Cl)csc21,?
Cc1ccc(-n2nc3cc(C)c(N)cc3n2)cc1,?
CCOc1ccc(NC(=O)COC(=O)c2c(OC)cccc2OC)cc1,-26%
Cc1cccc(N(CC(N)=O)C2SC(=O)NC2=O)c1 (stereo unspecified),-11%
CCCN(CCC)CCSc1nc(O)c(C(C)C)c(=O)[nH]1,-8%
CCOC(=O)c1cnc(SCC(=O)N2CCc3ccccc32)nc1N,-6%
Cc1coc2cc3oc(=O)cc(C)c3cc12,-2%
CC1CCC(N2CCN(S(C)(=O)=O)CC2)CC1 (stereo unspecified),3%
Cc1c(C(=O)O)[nH]c2c1C(=O)CC(c1ccc(Cl)cc1)C2 (stereo unspecified),-4%
CN(CC(=O)Nc1ccc(F)c(Cl)c1)S(=O)(=O)c1cccc2nsnc12,-3%
O=S(=O)(Nc1nccs1)c1ccc2c(c1)OCCO2,-12%
Cc1ccccc1OCCC(=O)Nc1ccc(F)c(Cl)c1,-15%

# Continuation.
SMILES,HPGD inh
Cc1onc(-c2ccccc2)c1C(=O)NCC1CCCO1 (stereo unspecified),1%
COCCCN1C(=O)C(=O)/C(=C(/O)c2ccc(OCC(C)C)cc2C)C1c1cccnc1 (stereo unspecified),-11%
COc1ccc(-c2noc(CCC(=O)NCCCN3CCC(C)CC3)n2)cc1,1%
COc1ccccc1Nc1ncnc2nc[nH]c12,-14%
Cc1ccc2[nH]c3c(c2c1)CCCC3C(N)=O (stereo unspecified),1%
O=C(NCc1ccccc1)c1noc2c1CCCCC2,?
O=C(COc1ccc(OCc2ccccc2)cc1)NC1CCOC1=O (stereo unspecified),-11%
COc1ccc(C2N3CC4(C)CN2CC(C)(C3)C4O)cc1 (stereo unspecified),-3%
CC1(C)[C@@H]2CC[C@]1(C)[C@@H](OC(=O)/C=C\c1ccccc1)C2,-10%
COP(=O)(OC)OC(c1ccc(Cl)cc1)P(=O)(OC)OC (stereo unspecified),-4%
Cc1ccc(NC(=O)CS(=O)CC(=O)N(c2ccccc2)C(C)C(=O)NC2CCCC2)cc1 (stereo unspecified),2%
COc1ccc(-c2nc(C#N)c(N3CCCCCC3)o2)cc1OC,?
Cc1ccc(NC2=CC(=O)CCC2)cc1C,2%
Cc1ccc(NC(=O)CN2C(=O)/C(=C3\SC(=S)N(C4CCS(=O)(=O)C4)C3=O)c3ccccc32)cc1 (stereo unspecified),-7%
CCCc1nc2oc3c(N4CCNCC4)ncnc3c2c2c1CCCC2,-15%
O[C@H]([C@H](O)[C@@H](O)c1nc2ccccc2[nH]1)[C@@H](O)c1nc2ccccc2[nH]1,0%
Cc1nnc(C)n1/N=C/c1ccc(C(C)C)cc1,-4%
COc1ccccc1NC(=O)CC1C(=O)Nc2c1c(=O)n(C)c(=O)n2C (stereo unspecified),-7%
Cc1ccc(C2(C)NC(=O)N(CC(=O)c3ccc(Cl)s3)C2=O)cc1 (stereo unspecified),-11%
CN(C)c1ccc(/C=N\NC(=S)SCN2C(=O)C3CCC(C)(C2=O)C3(C)C)cc1 (stereo unspecified),?
CCCn1cnc2c(cnn2-c2ccc(F)cc2)c1=O,?
